Screening data (PubChem)
TRPML1 agonist – qHTS for Agonists of the Human Mucolipin Transient Receptor Potential 1 (TRPML1); TRPML1-expressing cells, Ca2+ dye fluorescence, FDSS; host cell line not named in the record; reference of the full effect not given here; Mucolipin-1 (Homo sapiens), Q9GZU1; 410,000 tested, 0.12% active; activation, % (concentration not given with the values); AID 624414, 2012; in the data active = activation above about 50%; inconclusive = about 30% to 50%; inactive = below about 30%; note: 0% is about no effect; the text of the record puts the active cut at 80%
Target sequence (Q9GZU1 whole entry, looked up): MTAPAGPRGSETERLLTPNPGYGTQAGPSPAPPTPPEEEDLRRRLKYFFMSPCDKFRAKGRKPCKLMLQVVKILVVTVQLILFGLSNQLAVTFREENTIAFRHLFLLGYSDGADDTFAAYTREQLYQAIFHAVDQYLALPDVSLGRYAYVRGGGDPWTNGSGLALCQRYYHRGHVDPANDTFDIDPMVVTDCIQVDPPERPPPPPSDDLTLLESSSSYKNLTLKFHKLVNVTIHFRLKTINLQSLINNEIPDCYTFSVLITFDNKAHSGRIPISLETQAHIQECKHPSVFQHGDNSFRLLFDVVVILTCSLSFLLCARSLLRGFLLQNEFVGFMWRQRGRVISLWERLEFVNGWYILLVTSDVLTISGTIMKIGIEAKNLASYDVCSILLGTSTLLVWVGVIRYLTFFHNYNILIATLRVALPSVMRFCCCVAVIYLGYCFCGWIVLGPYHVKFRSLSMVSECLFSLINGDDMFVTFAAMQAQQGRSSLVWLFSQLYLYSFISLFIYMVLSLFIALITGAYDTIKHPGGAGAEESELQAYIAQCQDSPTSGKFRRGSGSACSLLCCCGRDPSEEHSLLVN
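Tet-induced TRPML1-DL cells, 1,500 per well, cultured overnight, were loaded with a no-wash Ca2+ dye for 45–90 min. Calcium fluorescence was recorded on the FDSS for 110 s after compound addition, before the EC80 agonist (4 uM 54-4) was added.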
PINK1 modulator – A Quantitative High throughput Screen to Identify Chemical Modulators of PINK1 Expression; PINK1 immunofluorescence, high-content cytometry, 24 h; Potency, µM (doses to about 76.6 µM), for the others: top-dose activation (PINK1 increase), most hits filed as activators; 410,000 tested, 0.2% active; AID 624263, 2012; active = well fitted activation curve with a large enough effect; inconclusive = small, poorly fitted or top-dose-only effect; inactive = flat fitted curve, though single readings scatter; cell line not stated here;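 note: potency is the fitted concentration of half-maximal effect; % of control where 0% means no effect; nearly all actives have a fitted effect of over 65% in size; a mitochondrial uncoupler was the plate control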
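Measures PINK1 amount and localization on or inside mitochondria by immunofluorescence. Stable cells get compounds at 5 concentrations for 24 hours before fixation and staining; CCCP controls included.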
D2 ag – Beta-Arrestin HTS for Positive Allosteric Modulators of the Human D2 Dopamine Receptor: Agonists; AID 624465, 2012; 360,000 tested, 0.084% active; activation, % (test concentration not listed); D(2) dopamine receptor (Homo sapiens), P14416; DiscoveRx PathHunter D2 beta-arrestin, luminescence, 90 min; 100% = 57 uM dopamine signal; in the data active = activation above about 40%; inconclusive = about 15% to 40%; inactive = below about 15%; note: compound concentration not given in the record; the text of the record calls up to 30% inactive
Target sequence (P14416 whole entry, looked up): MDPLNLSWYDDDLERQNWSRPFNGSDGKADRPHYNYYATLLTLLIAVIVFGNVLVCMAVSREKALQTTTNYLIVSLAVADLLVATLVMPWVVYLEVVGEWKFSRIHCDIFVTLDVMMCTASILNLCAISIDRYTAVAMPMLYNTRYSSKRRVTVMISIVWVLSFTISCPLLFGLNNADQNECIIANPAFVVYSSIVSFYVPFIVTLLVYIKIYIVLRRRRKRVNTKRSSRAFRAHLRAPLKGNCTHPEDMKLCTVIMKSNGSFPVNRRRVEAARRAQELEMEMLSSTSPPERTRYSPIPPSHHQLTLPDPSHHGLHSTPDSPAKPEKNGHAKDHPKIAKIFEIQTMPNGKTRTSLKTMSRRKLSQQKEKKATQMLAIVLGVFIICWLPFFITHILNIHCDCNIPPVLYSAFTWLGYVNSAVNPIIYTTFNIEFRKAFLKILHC
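Agonist mode: compounds alone added to overnight-plated D2 PathHunter cells for 90 min at 37 C, with 57 uM final dopamine (EC100) defining full response. Beta-arrestin recruitment detected by chemiluminescent reagent, read after 1 h at ambient temperature.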
TRPML1 inh – qHTS for Inhibitors of the Human Mucolipin Transient Receptor Potential 1 (TRPML1); 390,000 tested, 0.02% active; AID 624415, 2012; activity change, negative = inhibition, % (test concentration not listed); TRPML1-inducible cells, Ca2+ dye fluorescence, FDSS; stronger effect = lower value; inhibition of EC80 agonist-evoked calcium signal; Mucolipin-1 (Homo sapiens), Q9GZU1; in the data active means activity change below about -50%; inconclusive means about -30% to -50%; inactive means above about -30%;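 note: stimulus is agonist 54-4 at its EC80 concentration; % is set by controls: 0 for no effect and ±100 for the full control effect; compound concentration not given in the record; the text of the record puts the active cut at -80%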
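TRPML1-DL cells, Tet-induced overnight (~16 h, 37 °C) at 1,500 cells/well, were loaded with Ca8 no-wash dye plus quencher for 45-90 min at room temperature. Compounds were pinned during FDSS kinetic reading; agonist 54-4 at EC80 (4 uM final) then added.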
CtBP-E1A inh – qHTS Assay for Inhibitors of the CtBP/E1A Interaction | CtBP / adenovirus E1A interaction (AlphaScreen) | AlphaScreen GST-E1A/His-CtBP binding, 1536-well; stronger effect = lower value; control for the full effect not named in the record | activity change, % (no concentration beside the values) | 340,000 tested, 0.49% active; in the data active means activity change below about -65%; inconclusive means about -30% to -65%; inactive means above about -30%; note: % is set by controls: 0 for no effect and ±100 for the full control effect; compound concentration not given in the record
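AlphaScreen with 125 nM GST-E1A and 125 nM His-CtBP (5X stocks) in Tris pH 8.0, 300 mM NaCl, BSA, Tween 20, TCEP. Compounds preincubated 2 h at 37 deg C, then glutathione donor/nickel acceptor beads added for 1 h at 37 deg C in dark.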
Six1-Eya2 inh – qHTS Assay for Inhibitors of the Six1/Eya2 Interaction; 360,000 tested, 0.56% active; AlphaScreen GST-Six1/His-Eya2 binding, biochemical; stronger effect = lower value; control for the full effect not named in the record; activity change, % (test concentration not listed); in the data active = activity change below about -65%; inconclusive = about -30% to -65%; inactive = above about -30%; note: % is set by controls: 0 for no effect and ±100 for the full control effect; compound concentration not given in the record
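AlphaScreen with GST-Six1 and His-Eya2 (5X mix: 250 nM and 500 nM), glutathione donor and nickel acceptor beads; buffer 50 mM Tris pH 8.0, 300 mM NaCl, 1 mM TCEP; 1 h at 37 C in the dark.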
Starred values were filed as active, the others as inactive; [ ] = another dose, or the depositor's remark. The order is random. About 1% of those tested had a hit in this group.

`O=C(NN1C(=O)/C(=C/c2cccs2)SC1=S)c1cccnc1` gave TRPML1 agonist 5.4, PINK1 modulator 0.8%, D2 ag -5.1, TRPML1 inh 17, CtBP-E1A inh inconclusive and Six1-Eya2 inh inconclusive.
`O=C(NC(NC(=S)Nc1ccccc1C(=O)O)C(Cl)(Cl)Cl)c1ccco1` (configuration not stated) gave TRPML1 agonist 0.6, PINK1 modulator 0.2%, D2 ag -5.6, TRPML1 inh -15, CtBP-E1A inh -22 and Six1-Eya2 inh -17.
COCCCNc1nc(N)c([N+](=O)[O-])c(NC2CCCCC2)n1 was read as TRPML1 agonist 3.7, PINK1 modulator 4.8%, D2 ag -0.4, TRPML1 inh -16, CtBP-E1A inh -20 and Six1-Eya2 inh -6.
Screening COc1ccc(S(=O)(=O)NCc2cccnc2)cc1Br returned PINK1 modulator 2.5%, D2 ag 11 and Six1-Eya2 inh -1.
Screening CCCCC(=O)Nc1ccc(C(=O)NNC(=S)NC(=O)c2ccco2)cc1 returned TRPML1 agonist 0.9, PINK1 modulator 1.5%, D2 ag -1.2, TRPML1 inh -6, CtBP-E1A inh -1 and Six1-Eya2 inh -5.
For CCOC(=O)Nc1cc(OC)c(OC)cc1Cc1nccc2cc(OC)c(OC)cc12 the results were TRPML1 agonist 0.2, PINK1 modulator -3.4%[38.3 µM], D2 ag -1.0, TRPML1 inh -13, CtBP-E1A inh 27 and Six1-Eya2 inh 0.
Cc1c(-c2ccc(Cl)cc2)oc(=O)c2c(N)n(-c3ccccc3)nc12 was read as TRPML1 agonist 0.0, PINK1 modulator 0.7%, D2 ag -1.0, TRPML1 inh -4, CtBP-E1A inh 3 and Six1-Eya2 inh -1.
Screening O=C(NCc1ccccn1)c1nn(-c2ccccc2)c(=O)c2ccccc12 returned TRPML1 agonist 0.0, PINK1 modulator 1.5%, D2 ag -1.7, TRPML1 inh -20, CtBP-E1A inh 20 and Six1-Eya2 inh 10.
COc1ccc(OC)c(-c2nc3c(C)n[nH]c(=O)c3[nH]2)c1 was read as TRPML1 agonist 0.7, PINK1 modulator 0.2%, D2 ag 5.6, TRPML1 inh -1, CtBP-E1A inh -27 and Six1-Eya2 inh -26.
Screening O=C(CC1C(=O)N(c2ccc(F)cc2)C(=O)N1Cc1ccc2c(c1)OCO2)Nc1ccc(F)cc1 (configuration not stated) returned TRPML1 agonist -0.6, PINK1 modulator 2.8% and TRPML1 inh 19.
O=C(OC(C(=O)NCC1CCCO1)c1ccccn1)c1cccs1 (configuration not stated) was read as TRPML1 agonist -0.4, D2 ag -1.2, TRPML1 inh -7, CtBP-E1A inh 47 and Six1-Eya2 inh 23.
Cn1c(SCC(=O)NNC(=O)Cc2ccccc2)nc2ccccc2c1=O was read as TRPML1 agonist 0.7, PINK1 modulator 1.5%, D2 ag -0.2, TRPML1 inh -7 and Six1-Eya2 inh -20.
For CC(=O)/C=C1/C(=O)Nc2ccccc21 the results were TRPML1 agonist 0.0, PINK1 modulator 4.9%, D2 ag -13, TRPML1 inh 16, CtBP-E1A inh 7 and Six1-Eya2 inh -4.
For CCN1CCN(c2oc(-c3ccc(OC)cc3)nc2C#N)CC1 the results were TRPML1 agonist 0.3, PINK1 modulator inconclusive, D2 ag -2.8, TRPML1 inh -9, CtBP-E1A inh -1 and Six1-Eya2 inh 2.
CC(C)CN(C(=O)COC(=O)Cc1n[nH]c(=O)c2ccccc12)C1CCS(=O)(=O)C1 (configuration not stated) was read as TRPML1 agonist -0.7, PINK1 modulator inconclusive, D2 ag -2.6, TRPML1 inh 0, CtBP-E1A inh 4 and Six1-Eya2 inh 3.

Reprinted from the part before: three entries, followed by the next part.
For CC(=O)/C=C1/C(=O)Nc2ccccc21 the results were TRPML1 agonist 0.0, PINK1 modulator 4.9%, D2 ag -13, TRPML1 inh 16, CtBP-E1A inh 7 and Six1-Eya2 inh -4.
For CCN1CCN(c2oc(-c3ccc(OC)cc3)nc2C#N)CC1 the results were TRPML1 agonist 0.3, PINK1 modulator inconclusive, D2 ag -2.8, TRPML1 inh -9, CtBP-E1A inh -1 and Six1-Eya2 inh 2.
CC(C)CN(C(=O)COC(=O)Cc1n[nH]c(=O)c2ccccc12)C1CCS(=O)(=O)C1 (configuration not stated) was read as TRPML1 agonist -0.7, PINK1 modulator inconclusive, D2 ag -2.6, TRPML1 inh 0, CtBP-E1A inh 4 and Six1-Eya2 inh 3.
CCn1cc(CN2CCC(C(=O)Nc3ccc(Oc4ccccc4F)cc3)CC2)cn1 was read as TRPML1 agonist 0.3, PINK1 modulator 7.7%, D2 ag -3.1, TRPML1 inh 7, CtBP-E1A inh -9 and Six1-Eya2 inh 2.
Cc1csc(CN(C)C(=O)C2CCC(=O)N(Cc3ccc(Cl)cc3)C2)n1 (configuration not stated) was read as TRPML1 agonist -0.6, PINK1 modulator 0.5%, D2 ag -6.3, TRPML1 inh -5, CtBP-E1A inh 5 and Six1-Eya2 inh 2.
`Cn1nc([N+](=O)[O-])nc1N1CCOCC1` gave TRPML1 agonist 0.2, PINK1 modulator 0.1%, D2 ag 7.7, TRPML1 inh -6, CtBP-E1A inh -11 and Six1-Eya2 inh 4.
`CCOc1ccc(CCNC(=O)CN2CCN(Cc3ccc(F)cc3Cl)C2=O)cc1OCC` gave TRPML1 agonist -1.8, PINK1 modulator 0.3% and TRPML1 inh 4.
Screening COc1ccc(Nc2nc(-c3cccs3)nc3ccccc23)cc1S(=O)(=O)N1CCOCC1 returned PINK1 modulator -1.4%, D2 ag 0.5, CtBP-E1A inh -67* and Six1-Eya2 inh inconclusive.
`Cc1ccc(S(=O)(=O)CCC(=O)OCC(=O)NCc2ccc(Cl)cc2)cc1` gave TRPML1 agonist 2.8, PINK1 modulator -0.9%, D2 ag 5.4, TRPML1 inh 13 and Six1-Eya2 inh -1.
`O=C(c1cccc(S(=O)(=O)N2CCCc3ccccc32)c1)N1CCN(c2ccccc2)CC1` gave TRPML1 agonist 2.9, PINK1 modulator 0.2%, D2 ag 1.3, TRPML1 inh 21, CtBP-E1A inh 3 and Six1-Eya2 inh 3.
For O=C1C(c2ccc(F)cc2)N(C2CCCCC2)C(=O)CN1C1CCCC1 (configuration not stated) the results were TRPML1 agonist 0.2, PINK1 modulator 6.4%[38.3 µM], D2 ag -4.4, TRPML1 inh -2, CtBP-E1A inh 1 and Six1-Eya2 inh 1.
`Oc1cc2c(cc1CN1CCN(c3ncccn3)CC1)OCO2` gave TRPML1 agonist 1.5, PINK1 modulator 0.0%, D2 ag 96*, TRPML1 inh -4, CtBP-E1A inh -2 and Six1-Eya2 inh -2.
`CCN(CC)CCCNC(=O)c1cc2nc(-c3ccccc3)cc(C(F)(F)F)n2n1` gave TRPML1 agonist -0.2, PINK1 modulator 0.0%, D2 ag -7.0, TRPML1 inh 33, CtBP-E1A inh -3 and Six1-Eya2 inh 2.
`O=S(=O)(O)c1cc(OS(=O)(=O)c2ccccc2)cc2ccccc12` gave TRPML1 agonist 0.5, PINK1 modulator 0.1%, D2 ag -2.6, TRPML1 inh 15, CtBP-E1A inh -2 and Six1-Eya2 inh 0.
`COc1ccccc1OCC(=O)Nc1ncc(C)s1` gave TRPML1 agonist 1.1, PINK1 modulator 0.3%, D2 ag 0.1, TRPML1 inh 11, CtBP-E1A inh 1 and Six1-Eya2 inh 0.
Screening Cc1cccc(NC(=O)C2CCN(S(=O)(=O)c3ccc(Cl)cc3)CC2)n1 returned TRPML1 agonist 0.8, PINK1 modulator 1.0%, D2 ag -3.4, TRPML1 inh -7, CtBP-E1A inh 19 and Six1-Eya2 inh 0.
For C#CCn1c(/C=C/c2ccc(Cl)cc2)nc2ccccc21 the results were TRPML1 agonist 3.3, PINK1 modulator -0.7% and TRPML1 inh 28.
Screening CC(C)[C@H](NC(=O)[C@H](CCCN=C(N)N)NC(=O)NC(Cc1ccccc1)C(=O)O)C(=O)NC(C=O)CCCN=C(N)N (some centres not stated) returned TRPML1 agonist -0.1, PINK1 modulator 0.4%, D2 ag -3.6, TRPML1 inh 15, CtBP-E1A inh 5 and Six1-Eya2 inh 0.
Screening Cc1ccc(C)c2c1cc(C)c1nnc(SCC(=O)Nc3nc4c(s3)CCCC4)n12 returned TRPML1 agonist 0.8, PINK1 modulator 5.6%, D2 ag 0.9, TRPML1 inh -2, CtBP-E1A inh -13 and Six1-Eya2 inh -10.
`CCOC(=O)N1CCN(C(=O)c2cc3ccccc3o2)CC1` gave TRPML1 agonist -0.5, PINK1 modulator -1.3%, D2 ag 1.9, TRPML1 inh 3, CtBP-E1A inh 11 and Six1-Eya2 inh -5.
For CCOC(=O)N1CCN(S(=O)(=O)N2CCCC(C(=O)NCCCN3CCCCC3)C2)CC1 (configuration not stated) the results were TRPML1 agonist -0.4, PINK1 modulator 0.3%, D2 ag 2.6, TRPML1 inh 16, CtBP-E1A inh 0 and Six1-Eya2 inh 1.
For Cc1ccc(C)c(NC(=O)COC(=O)c2cccc(S(=O)(=O)N3CCCCC3)c2)c1 the results were TRPML1 agonist -0.5, PINK1 modulator 2.8%, D2 ag 1.9, TRPML1 inh 4, CtBP-E1A inh -1 and Six1-Eya2 inh 0.
For CC(=O)Nc1ccc(N(C(=O)CNC(=O)c2ccco2)C(C(=O)NCC2CCCO2)c2ccccc2)cc1 (configuration not stated) the results were TRPML1 agonist -0.6, PINK1 modulator -0.9%, D2 ag -3.8, TRPML1 inh -3, CtBP-E1A inh -7 and Six1-Eya2 inh 0.
For NC(=O)CSc1nc(O)cc(=O)n1-c1ccccc1 the results were TRPML1 agonist -0.4, PINK1 modulator -1.5%, D2 ag -2.0, TRPML1 inh -12, CtBP-E1A inh -5 and Six1-Eya2 inh -9.
`C=CCn1c(=N)n(CC(=O)c2ccc(Br)s2)c2ccccc21` gave TRPML1 agonist 0.4, PINK1 modulator -2.7%, D2 ag -2.5, TRPML1 inh 26, CtBP-E1A inh -2 and Six1-Eya2 inh 5.
CCOC(=O)c1nnn(CC(=O)Nc2cc(F)ccc2F)c1C(=O)OCC was read as TRPML1 agonist 1.1, PINK1 modulator 1.9%, D2 ag -0.4, TRPML1 inh 8, CtBP-E1A inh 6 and Six1-Eya2 inh 1.
`NS(=O)(=O)c1ccc(CCNC(=O)c2ccc(NS(=O)(=O)c3ccc4[nH]c(=O)[nH]c4c3)cc2)cc1` gave TRPML1 agonist 0.6, PINK1 modulator -0.6%, D2 ag 2.1, TRPML1 inh -6, CtBP-E1A inh -4 and Six1-Eya2 inh 6.
Screening COC(=O)c1ccccc1S(=O)(=O)C(C)(C)C returned TRPML1 agonist 1.6, PINK1 modulator -1.0%, D2 ag -3.0, TRPML1 inh 59, CtBP-E1A inh 10 and Six1-Eya2 inh -1.
